Vaccinia mCherry – inhibitors of vaccinia virus infection (mCherry reporter signal); Vaccinia virus mCherry reporter infection, fluorescence; about a quarter of the inactives have no number; Potency, µM (doses to about 36.5 µM), without a hit: at the top dose activity change, negative = inhibition, most hits filed as inhibitors; 310,000 tested, 0.63% active; AID 720579; active = well fitted inhibition curve with a large enough effect; inconclusive = small, poorly fitted or top-dose-only effect; inactive = no such curve, though single readings can be large or run the other way; tested in A549 cells; further: nearly all actives have a fitted effect of over 35% in size; inactives centre near -10
VACV Venus inh – inhibitors of vaccinia virus (Venus reporter); Vaccinia virus Venus reporter expression, fluorescence; Potency, µM (highest dose often 36.5 µM), inactives show top-dose activity change, negative = inhibition, most hits filed as inhibitors; 330,000 tested, 0.46% active; active means well fitted inhibition curve with a large enough effect; inconclusive means small, poorly fitted or top-dose-only effect; inactive means no such curve, though single readings can be large or run the other way; tested in A549 cells; further: nearly all actives have a fitted effect of over 30% in size; inactives centre near -10
Numbers without * were called inactive; i = inactive; ? = inconclusive; · = no result given; & = joins results of further samples. On the % scale 0 is the no-effect control and ±100 the full control effect; potency means the concentration at half of the fitted maximal effect. This is a random part of the collection; about 0.82% have a hit in one of these screens.

SMILES	Vaccinia mCherry	VACV Venus inh
Cc1cccc(N2CCN(C(=O)COc3ccc4c(C)cc(=O)oc4c3C)CC2)c1C	-25.5%	-23.7%
CC1(C)CC2CC(C)(CN2C(=O)c2cc(-c3ccc(F)cc3)on2)C1 (centres undefined)	-14.9%	-3.5%
CC1(C)Cc2cccc(OCC(=O)N3CCN(c4ccc([N+](=O)[O-])cc4)CC3)c2O1	?	-23.6%
COC(=O)CNC(=O)COC(=O)/C=C/c1ccc(F)cc1	-21.8%	-22.3%
Cc1ccc(NC(=O)c2cc(CC(C)C)nc3ccccc23)cc1	4.5%	-2.6%
COCCCNC(=O)C(C)N1c2cccc3cccc(c23)S1(=O)=O (centres undefined)	i	-7.1%
COc1ccc2c(c1)sc1ncc(C(=O)NCc3ccccc3F)c(=O)n12	-5.7%	-9.0%
COc1ccc(/C=C(\CC(=O)O)c2nc3ccccc3o2)cc1	i	-12.8%
OC[C@H]1O[C@@H](O[C@@H]2[C@@H](CO)O[C@](O)(CO)[C@H]2O)[C@H](O)[C@@H](O)[C@H]1O	-5.8%	5.3%
CCCCNC(=O)CCn1c(=O)c2ccccc2n(Cc2ccccc2C)c1=O	-6.8%	-6.5%
COC(=O)c1cccnc1-n1c(=O)c2cccnc2n(Cc2cccc(OC)c2)c1=O	-0.6%	-20.3%
CC(=O)c1ccc(NC(=O)CSCC(=O)Nc2ccc3ccccc3c2)cc1	·	-18.2%
COc1ccc(-c2ccc(C(C)=O)cc2)cc1[C@H]1[C@@H]2C=CCC[C@@]2(C)C(=O)N1Cc1ccccc1	-21.9%	?
O=C(C[C@H]1C(=O)N(Cc2ccccc2)C[C@@H]1Cc1ccccc1)Nc1ccccc1	-26.4%	-21.0%&-15.7%
O=C(O)CC(NC(=O)OCc1ccccc1)c1ccc(Br)cc1 (centres undefined)	-2.1%	-14.4%
C[C@@H]1CN([C@H](C)CO)C(=O)CCCn2nncc2CO[C@H]1CN(C)S(=O)(=O)c1cn(C)cn1	i	-5.4%
Cc1cccc(C(=O)OCC(=O)Nc2c(C)n(C)n(-c3ccccc3)c2=O)c1	-9.3%	-16.9%
Cn1cnc2c(ncn2C2OC(CO)C(O)C2O)c1=S (centres undefined)	i	-13.7%
Cc1nc(N)nc(Nc2ccc(C#N)cc2)c1Br	i	-13.7%
Cc1ccc(CN2CCN(c3ncccn3)CC2)c(C)c1	-25.7%	-19.6%
CCc1noc(C)c1C(=O)N1CCN(S(=O)(=O)c2ccc(Br)cc2Cl)CC1	-24.3%	-17.0%
CC(=O)C1=CCC(c2ccccc2)N(S(=O)(=O)c2ccccc2)C1 (centres undefined)	16.6%&46.4%	-1.2%&1.8%
Cc1ccc(NC(=O)c2cc([N+](=O)[O-])ccc2N2CCOCC2)cc1S(=O)(=O)N(C)C	i	-7.4%
COc1ccc(CC(NC(C)=O)C(=O)N2CCN(C(=O)Nc3cccc(Cl)c3)CC2)cc1OC (centres undefined)	·	-8.9%
COc1ccc(CNC(=O)c2ccc3nc(CCc4ccccc4)oc3c2)cc1	-15.2%	-13.6%
CCc1ccc(N/C(N)=N/c2nc(CSc3ncccn3)cc(=O)[nH]2)cc1	-4.2%	-5.3%
O=C(Cc1cccs1)NNC(=S)NC(=O)c1ccc(F)c(F)c1	i	-9.2%
Cc1ccc(C(=O)Nc2ccc(S(=O)(=O)N(Cc3ccccc3)c3ccccc3)cc2)cc1	?	-23.4%
O=S(=O)(NCCS(=O)(=O)N1CCN(c2ccccc2)CC1)c1ccccc1	-11.3%	-16.0%
CN1CCOc2cc(S(=O)(=O)Nc3ccc(F)cc3)ccc21	·	?
CC(Oc1ccccc1)C(=O)Nc1ccccc1C(=O)OCc1cc(=O)n2nc(C3CC3)sc2n1 (centres undefined)	-26.5%	-24.8%
COc1ccc(-c2nn(-c3ccccc3)cc2/C=C(\C#N)C(N)=O)cc1[N+](=O)[O-]	2.0%	-10.1%
COCCn1c(SCC(=O)N(C)C2CCS(=O)(=O)C2)nc2ccccc2c1=O (centres undefined)	-6.3%	-8.3%
Cc1ccccc1-c1cccc([C@@H]2C[C@H]3[C@H](CON3C)CN2C)c1	-14.3%	-5.5%
COc1cccc(NC(=O)CSc2nc3ccccc3c(=O)n2CCCC(=O)N2CCCC2)c1	-28.7%	-16.3%
CC1NC(C)c2c(ccc3ccccc23)O1 (centres undefined)	?	-15.9%
Cc1ccc(NC(=O)/C(=C\c2cccnc2)NC(=O)c2ccccc2)cc1	-12.2%	-8.3%
CCOc1ccc(-c2nonc2NC(=O)c2oc3ccc(C)cc3c2C)cc1OCC	-6.0%	-5.1%
Cc1ccc(C(=O)CC(Nc2ccc(F)cc2)c2ccccc2)cc1 (centres undefined)	-6.3%	-4.3%
Cc1ccc(-c2nnc(SCC#N)n2N)cc1	·	-5.6%
CC(C)n1cc(/C=N\NC(=O)c2cc3c(ccc4ccccc43)o2)c2ccccc21	·	-16.3%
c1coc(CNc2nc3nonc3nc2NCc2ccco2)c1	-17.8%	-25.5%
CCOC(=O)c1cc(NC(=O)N2CCOCC2)c(C)nc1C	i	-19.0%
CCOC(=O)c1nnn(C(CC)C(=O)Nc2ccc(F)cc2)c1C(=O)OCC (centres undefined)	1.5%	-2.7%
Cc1ccc(C(=O)N[C@H](C(=O)N2CCN(c3ccccc3F)CC2)C(C)C)cc1	-9.1%	-2.8%
COc1ccc(CNC(C)C(=O)Nc2ccc3ccccc3c2)cc1OC (centres undefined)	i	-16.3%
O=C(NCc1ccc(OC(F)(F)F)cc1)c1cc(-c2ccccc2)nn1CC1CC(c2cccnc2)=NO1 (centres undefined)	i	-19.7%
COC(=O)CCCCC(=O)OC	i	-8.0%
NC(=S)NN=C1CSSC1	-20.6%	-14.2%
N#Cc1cnc(SCC(=O)Nc2ccccc2C(F)(F)F)nc1N	-12.0%	-8.6%
Continued.
SMILES	Vaccinia mCherry	VACV Venus inh
CCC(=O)N(CCO)Cc1cc2ccc(C)c(C)c2[nH]c1=O	·	-21.0%
O=C(CCCc1ccccc1)Nc1ccnn1C1CCN(Cc2ccccn2)CC1	-20.5%	-19.5%
Cc1cc(Nc2cccc(Cl)c2)nc2ccc(NC(=O)c3ccc(F)cc3Cl)cc12	-4.9%	-13.0%
O=C(NC1CCCCC1)NC1CCN(CC(=O)N2CCOCC2)CC1	-9.9%	-2.5%
CCc1cccc(C)c1NC(=O)CN(C)Cc1ccccc1F	-27.2%	-17.8%
CC(=O)OCCCN(C)CC/C=C1/c2ccccc2CSc2ccccc21	-7.0%	-24.3%
C/C(N)=C(/C#N)C(=O)COC(=O)CCSc1ccccc1	i	-3.0%
CC1CCCCN1Cc1c(O)ccc2c(=O)c(-c3ccccc3)coc12 (centres undefined)	-11.3%&1.2%	-6.4%&7.3%
CC(C(=O)Nc1ccccc1Br)N1c2cccc3cccc(c23)S1(=O)=O (centres undefined)	-22.3%	1.7%
CN(C)c1ccc(/C=C/c2ccnc3c(Cl)cccc23)cc1	-5.3%	26.8%
Cc1cccc(C)c1NC(=O)CCCSc1nnc(-c2ccco2)n1-c1ccccc1	i	-19.4%
CC(C)CC1(C(=O)NCCc2c[nH]c3ccccc23)C=CCN1C(=O)c1ccccc1 (centres undefined)	i	-6.0%
O=C(CNS(=O)(=O)c1c(F)cc(F)cc1Br)OCC(=O)N1CCCC1=O	-1.7%	-9.7%
COC(=O)[C@]12CCCCC=C1N(CCC1=CCCCC1)C(=O)[C@H](CC(=O)NCCc1ccccc1OC)C2	13.1%	-4.7%
CC1CCN=C(N)S1 (centres undefined)	-0.6%	-18.0%
COC(=O)C1CCCCN1Cc1nc(N2CCCCC2)c2cc(OC)c(OC)cc2n1 (centres undefined)	-16.4%	-3.7%
Cc1[nH]n(-c2ccccc2)c(=O)c1N=Nc1ccc(F)cc1	-5.1%	-6.8%
COc1ccc(OC)c(N2CC(O)=C(c3nc4ccccc4s3)C2=N)c1	-8.9%	-26.2%
Cc1nn(CC(=O)NCCc2ccc(Cl)cc2)c(=O)c2cc3cc(F)ccc3n12	-3.4%	10.3%
Cc1cccc(C)c1OCC(=O)N1CC2(C)CC1CC(C)(C)C2 (centres undefined)	-7.3%	-15.8%
CCOC(=O)Cn1nnnc1C(CC)N(Cc1cccs1)Cc1cc2cc(C)ccc2[nH]c1=O (centres undefined)	·	26.4%
CC1(C)OB(c2cnc(C#N)nc2)OC1(C)C	i	-5.9%
CCN(C[C@H]1N[C@@](C)(C(=O)OC)[C@H]2C(=O)N(Cc3ccccc3)C(=O)[C@@H]12)S(=O)(=O)c1ccccc1	i	-7.7%
CCC(C)(C)NC(=O)CN(Cc1ccccc1)C(=O)CCC(=O)Nc1nccs1	-14.2%	-11.8%
COc1ccc(/C(C)=N\NC(=O)c2ccc(-c3ccccc3)cc2)c(F)c1	?	-14.1%
CCC(C(=O)NC1CCCC1)n1c(-c2ccncc2)nc2ccccc21 (centres undefined)	-13.7%	0.0%
O=C(CCn1c(=S)oc2ccccc21)Nc1ccccc1F	i	-8.6%
Cc1cc(C)c(NC(=O)C(C)n2nnc3sc4c(c3c2=O)CCCC4)c(C)c1 (centres undefined)	-11.6%	-11.4%
CC1CCN(S(=O)(=O)c2ccc3nc(Nc4cccc(F)c4)ccc3c2)CC1	?	-23.8%
COc1ccc(NC(=O)C2CC(c3ccc(Cl)cc3)=NO2)cc1 (centres undefined)	-8.9%	-14.1%
CCc1ccc(NC(=O)CN2C(=O)C(c3ccc(F)cc3)=NC2(C)C)cc1	-14.1%	-10.1%
CC(=O)N/C(=C\c1ccccc1)C(=O)OC/C=C/c1ccccc1	-18.0%	-6.5%
Cc1onc(-c2ccccc2Cl)c1C(=O)Nc1nnc(-c2cccc([N+](=O)[O-])c2)s1	i	-10.5%
O=C1CC(c2ccccc2)CC(O)=C1C=NCCN1CCN(C(=S)Nc2cccc(Cl)c2)CC1 (centres undefined)	i	-8.3%
NC(N)=NS(=O)(=O)c1ccc(NC(=S)NC(=O)/C=C/c2ccco2)cc1	-0.2%	1.4%
Cc1cc(C(=O)C(C)OC(=O)c2ccc(NC(=O)CC#N)cc2)c(C)n1-c1ccccc1 (centres undefined)	?	-19.2%
COC(=O)C(C)(C)ONC(=O)Nc1ccc(C)cc1	-8.8%	-0.3%
COc1ccccc1C(=O)COC(=O)Cn1nc(C)c([N+](=O)[O-])c1C	-18.4%	-9.5%

Some values from the results shown.
CCc1ccc(NC(=O)CN2C(=O)C(c3ccc(F)cc3)=NC2(C)C)cc1 – VACV Venus inh = -10.1%
Cc1onc(-c2ccccc2Cl)c1C(=O)Nc1nnc(-c2cccc([N+](=O)[O-])c2)s1 – VACV Venus inh = -10.5%

21 neighbouring compounds from above:
SMILES	Vaccinia mCherry	VACV Venus inh
COc1ccc(OC)c(N2CC(O)=C(c3nc4ccccc4s3)C2=N)c1	-8.9%	-26.2%
Cc1nn(CC(=O)NCCc2ccc(Cl)cc2)c(=O)c2cc3cc(F)ccc3n12	-3.4%	10.3%
Cc1cccc(C)c1OCC(=O)N1CC2(C)CC1CC(C)(C)C2 (centres undefined)	-7.3%	-15.8%
CCOC(=O)Cn1nnnc1C(CC)N(Cc1cccs1)Cc1cc2cc(C)ccc2[nH]c1=O (centres undefined)	·	26.4%
CC1(C)OB(c2cnc(C#N)nc2)OC1(C)C	i	-5.9%
CCN(C[C@H]1N[C@@](C)(C(=O)OC)[C@H]2C(=O)N(Cc3ccccc3)C(=O)[C@@H]12)S(=O)(=O)c1ccccc1	i	-7.7%
CCC(C)(C)NC(=O)CN(Cc1ccccc1)C(=O)CCC(=O)Nc1nccs1	-14.2%	-11.8%
COc1ccc(/C(C)=N\NC(=O)c2ccc(-c3ccccc3)cc2)c(F)c1	?	-14.1%
CCC(C(=O)NC1CCCC1)n1c(-c2ccncc2)nc2ccccc21 (centres undefined)	-13.7%	0.0%
O=C(CCn1c(=S)oc2ccccc21)Nc1ccccc1F	i	-8.6%
Cc1cc(C)c(NC(=O)C(C)n2nnc3sc4c(c3c2=O)CCCC4)c(C)c1 (centres undefined)	-11.6%	-11.4%
CC1CCN(S(=O)(=O)c2ccc3nc(Nc4cccc(F)c4)ccc3c2)CC1	?	-23.8%
COc1ccc(NC(=O)C2CC(c3ccc(Cl)cc3)=NO2)cc1 (centres undefined)	-8.9%	-14.1%
CCc1ccc(NC(=O)CN2C(=O)C(c3ccc(F)cc3)=NC2(C)C)cc1	-14.1%	-10.1%
CC(=O)N/C(=C\c1ccccc1)C(=O)OC/C=C/c1ccccc1	-18.0%	-6.5%
Cc1onc(-c2ccccc2Cl)c1C(=O)Nc1nnc(-c2cccc([N+](=O)[O-])c2)s1	i	-10.5%
O=C1CC(c2ccccc2)CC(O)=C1C=NCCN1CCN(C(=S)Nc2cccc(Cl)c2)CC1 (centres undefined)	i	-8.3%
NC(N)=NS(=O)(=O)c1ccc(NC(=S)NC(=O)/C=C/c2ccco2)cc1	-0.2%	1.4%
Cc1cc(C(=O)C(C)OC(=O)c2ccc(NC(=O)CC#N)cc2)c(C)n1-c1ccccc1 (centres undefined)	?	-19.2%
COC(=O)C(C)(C)ONC(=O)Nc1ccc(C)cc1	-8.8%	-0.3%
COc1ccccc1C(=O)COC(=O)Cn1nc(C)c([N+](=O)[O-])c1C	-18.4%	-9.5%

Screens: PubChem, National Center for Advancing Translational Sciences (NCATS)
